Cruzain inh Det = qHTS Assay for Promiscuous and Specific Inhibitors of Cruzain (with detergent); Cruzipain (Trypanosoma cruzi), P25779; purified cruzain, Z-FR-AMC fluorescence, 0.01% Triton; Potency, µM, inactives show max response, negative = inhibition, most hits filed as inhibitors; 0.43% of 200,000 active; AID 1478, 2009; active = well fitted curve in the direction sought with a large enough effect; inconclusive = small, poorly fitted or top-dose-only effect, or another doubt; inactive = no such curve, though single readings can be large; an effect the other way counts as inactive or inconclusive;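 also: plate controls were neutral wells for no effect and buffer without enzyme for full effect; nearly all actives have a fitted effect of over 40% in size; top concentration of the series not given in the record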
Target sequence (P25779 123-467 limits assumed): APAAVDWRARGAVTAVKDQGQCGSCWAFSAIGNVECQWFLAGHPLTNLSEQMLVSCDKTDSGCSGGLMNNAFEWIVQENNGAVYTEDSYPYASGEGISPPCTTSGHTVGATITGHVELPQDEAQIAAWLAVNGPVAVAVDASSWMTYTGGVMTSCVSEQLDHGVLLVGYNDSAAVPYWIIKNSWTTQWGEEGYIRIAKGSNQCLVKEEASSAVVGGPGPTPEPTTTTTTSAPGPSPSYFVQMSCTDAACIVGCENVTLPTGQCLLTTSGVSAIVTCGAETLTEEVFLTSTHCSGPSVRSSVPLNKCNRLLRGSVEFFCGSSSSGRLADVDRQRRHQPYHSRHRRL
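Purified cruzain (1.5 nM final) was preincubated with compounds for 15 min at room temperature in 100 mM sodium acetate pH 5.5, 5 mM DTT, 0.01% Triton X-100. Reaction started with 2 uM Z-FR-AMC; AMC fluorescence change over 60 s gave activity.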
Cruzain noTriton = qHTS Assay for Promiscuous and Specific Inhibitors of Cruzain (without detergent) | purified cruzain, Z-FR-AMC fluorescence, no detergent | AID 1476, 2009 | Potency, µM, for the others: max response, negative = inhibition, usual class: inhibitors | 2.3% of 200,000 active; active = well fitted curve in the direction sought with a large enough effect; inconclusive = small, poorly fitted or top-dose-only effect, or another doubt; inactive = no such curve, though single readings can be large; an effect the other way counts as inactive or inconclusive;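 also: plate controls were enzyme without inhibitor for no effect and buffer without enzyme for full effect; nearly all actives have a fitted effect of over 40% in size; top concentration of the series not given in the record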
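Detergent-free condition (0.00005% Triton X-100) in acetate buffer pH 5.5 with DTT. 1.5 nM enzyme and compound were pre-mixed 15 min, then 2 uM Z-FR-AMC substrate added; reaction progress from fluorescence change between first and third reads (60 s).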
NS1 function inh = qHTS Assay for Inhibitors of Influenza NS1 Protein Function; S. cerevisiae slowed by influenza A NS1, growth recovery by OD600; Potency, µM (highest dose often 46.1 µM), without a hit: top-dose activity, positive = more growth; 0.4% of 270,000 active; AID 2326, 2010; also: actives are rising curves; nearly all actives have a fitted effect of over 50% in size
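Growth recovery, yeast-based: influenza A NS1 expressed in S. cerevisiae causes slow growth, and suppressors are detected by OD600. The parent strain without NS1 is used as positive control.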
MARV entry inh = qHTS for inhibitors of binding or entry into cells for Marburg Virus; Marburg virus pseudotyped entry inhibition, cell reporter; control for the full effect not named in the record; about a third of the inactives were read at about 46 µM; Potency, µM (series often up to 37.8 µM), for the others: at the highest dose activity change, negative = inhibition, hits mostly inhibitors; 1.8% of 300,000 active; AID 540276, 2011; active = well fitted inhibition curve with a large enough effect; inconclusive = small, poorly fitted or top-dose-only effect, or effect the other way; inactive = flat fitted curve, though single readings scatter; tested in HEK293 cells; about a fifth of its hits are not listed in these tables; also: % is scaled to controls: 0 for no effect and ±100 for the full control effect; luciferase read-out
2A StopGo = High Throughput Screening for Foot and Mouth Disease Virus Antivirals | 1.2% of 410,000 active | human cells with a luciferase reporter of 2A StopGo recoding; control for the full effect not named in the record | Potency, µM (top dose mostly 57.9 µM), inactives show at the highest dose signal change, negative = less light; active = well fitted falling curve with a large enough effect; inconclusive = small, poorly fitted or top-dose-only effect; inactive = no such curve, though single readings can be large or run the other way; tested in HEK293T cells; also: % is scaled to controls: 0 for no effect and ±100 for the full control effect; nearly all actives have a fitted effect of over 45% in size; luciferase light after 4 h
SARS PLpro yeast = qHTS of Yeast-based Assay for SARS-CoV PLP; S. cerevisiae expressing SARS-CoV PLpro, growth rescue; control for the full effect not named in the record; Potency, µM (highest dose often 32.9 µM), for inactives: at the top dose activity, positive = growth rescue; 0.19% of 330,000 active; also: 0% is about no effect; nearly all actives have a fitted effect of over 55% in size; growth read by luminescence after 48 h
LASV entry inh = qHTS for Inhibitors of binding or entry into cells for Lassa Virus | AID 540256, 2011 | Potency, µM (highest dose often 37.9 µM), for the others: at the top dose activity change, negative = inhibition, actives largely listed as inhibitors | Lassa virus pseudotype entry inhibition, cell reporter; control for the full effect not named in the record | 1.2% of 300,000 active; active means well fitted inhibition curve with a large enough effect; inconclusive means small, poorly fitted or top-dose-only effect, or effect the other way; inactive means flat fitted curve, though single readings scatter; tested in HEK293 cells; also: % is scaled to controls: 0 for no effect and ±100 for the full control effect; nearly all actives have a fitted effect of over 50% in size; luciferase read-out
RE007 growth inh = qHTS Assay for Inhibitors of the HIV-1 protein Vpr; Potency, µM (series often up to 92.2 µM), for the others: at the top dose activity change, negative = less growth; 0.21% of 360,000 active; S. pombe RE007 Vpr strain, BacTiter-Glo ATP luminescence, 24 h; control for the full effect not named in the record; active = well fitted falling curve with a large enough effect; inconclusive = small, poorly fitted or top-dose-only effect; inactive = no such curve, though single readings can be large or run the other way;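 also: % is scaled to controls: 0 for no effect and ±100 for the full control effect; nearly all actives have a fitted effect of over 50% in size; the assay follows cell death caused by Vpr and the record does not say whether a fall means rescue or toxicity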
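Fission yeast RE007 carrying one integrated HIV-1 vpr copy, seeded at OD 0.01 in PMG+AL medium with 23 nL pinned compound. Grown 24 h at 30 degrees; viability read by BacTiter-Glo luminescence after 5 min.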
Numbers without * were called inactive; u = inconclusive; x = not tested or not shown; & = joins results of further samples; [ ] = another dose, or the depositor's remark. Unless noted, calls follow the shape of the dose curve; as a rule, active means well fitted rising curve with a large enough effect; inconclusive means small, poorly fitted or top-dose-only effect; inactive means no such curve, though single readings can be large or run the other way. Potency is read from the fitted curve at half-maximal effect. This is a random part of the collection; about 4.7% have a hit in one of these screens.

compound,RE007 growth inh,2A StopGo,MARV entry inh,NS1 function inh,LASV entry inh,Cruzain noTriton,Cruzain inh Det,SARS PLpro yeast
Cc1cc(C)c(S(=O)(=O)N2CCOCC2)cc1NS(=O)(=O)c1cc(OCC(N)=O)c(C)cc1Cl,16%,3%,x,-6%,x,x,x,1%
Cc1cc(C)nc(NS(=O)(=O)c2ccc(NC(=O)c3snnc3C)cc2)n1,-3%,37%[activator],-4%[46.1 µM],3%,16%[46.1 µM],x,x,5%
CC1Cc2ccccc2N1C(=O)CCn1c(=O)oc2ccccc21 (stereo not given),4%,-5%,x,-5%,x,-6%,-2.8%,3%
CNC(=S)N/N=C/C1=CCC2CC1C2(C)C (stereo not given),5%,1%,3%,-11%,1.3µM*,4%,-4.2%,13µM*
CCOc1ncccc1C(=O)OCC(=O)Nc1ncc(C(F)(F)F)cc1Cl,2%,-20%,-23%&-23%,0%,-1%,-6%,-3.1%,3%
CCCNC(=O)c1ccc(-c2nc3ccccc3s2)s1,u,-69%,3.5µM*,-114%,u,9%,-6.0%,-16%
CCn1c(O)c(/C=C2\C=Nc3ccccc32)sc1=O,-10%,67%[activator],x,5%,x,x,x,-8%
CN1CCN(C2=Cc3ccccc3Sc3cc(F)c(Cl)cc32)CC1,17%,u,u,-20%,-2%,2%,-20%,-21%
CC(Oc1ccccc1)C(=O)N1CCN(c2ccc(N3CCOCC3)nn2)CC1 (stereo not given),7%,-9%,-8%,x,31%,x,x,2%
COc1ccc(OC)c(NC(=O)c2nnn(CCc3ccccc3)c2N)c1,5%,-20%,x,5%,x,-7%,3.8%,0%

(list continues)
compound,RE007 growth inh,2A StopGo,MARV entry inh,NS1 function inh,LASV entry inh,Cruzain noTriton,Cruzain inh Det,SARS PLpro yeast
CN(CCN1CCc2ccccc2C1)Cc1nc(-c2ccc3c(c2)OCO3)no1,-19%,-12%,-3%[46.1 µM],-2%,29%[46.1 µM],x,x,-1%
O=C(NCc1ccco1)c1cccc(NS(=O)(=O)c2ccccc2F)c1,-15%,-1%,7%,-8%,u,-2%,-3.4%,-8%
CSc1ccc(CN2CCC(n3nccc3NC(=O)CCCc3ccccc3)CC2)cc1,3%,-15%,u,7%,u,x,x,4%
CCN1C(=O)C(c2ccc(O)cc2)(c2ccc(O)cc2)c2ccccc21,-6%,-19%,u,4%,-14%,x,x,1%
Nc1cc(C(=O)OCC(=O)NNC(=O)c2ccccc2)ccc1Cl,38%,-20%,u,x,6%[46.1 µM],x,x,x
CCCCNC(=O)c1cc2c(=O)n3cccc(C)c3nc2n(Cc2ccncc2)c1=N,-9%,-21%,u,-1%,2%,u,22µM*,3%
COc1ccc(-c2ccc(-c3noc(-c4ccc(OC)c(OC)c4)n3)c(OC)n2)cc1,x,x,1%,2%,x,10%,-7.4%,-3%
CCOc1cc(CNC2CCCC2)cc(Cl)c1OCc1ccc(F)cc1,-12%,x,5.8µM*,-1%,u,u,2.8%,-10%
Cc1cc(N=Cc2cc(Cl)ccc2O)no1,-1%,30%[activator],14%,-19%,35%[14.3 µM],-5%,3.0%,3%
CC(NCc1cccc(OCc2ccccc2)c1)C(O)c1ccccc1 (stereo not given),1%,u,x,-35%,x,x,x,-2%

Compound profiles, from the list above. Order of values: RE007 growth inh, 2A StopGo, MARV entry inh, NS1 function inh, LASV entry inh, Cruzain noTriton, Cruzain inh Det, SARS PLpro yeast
`Cc1cc(N=Cc2cc(Cl)ccc2O)no1` is entered as -1%, 30%[activator], 14%, -19%, 35%[14.3 µM], -5%, 3.0%, 3%
`CCCCNC(=O)c1cc2c(=O)n3cccc(C)c3nc2n(Cc2ccncc2)c1=N` is entered as -9%, -21%, u, -1%, 2%, u, 22µM*, 3%

Later entries
compound,RE007 growth inh,2A StopGo,MARV entry inh,NS1 function inh,LASV entry inh,Cruzain noTriton,Cruzain inh Det,SARS PLpro yeast
CCOC(=O)C1CCN(C(=O)C2(NC(=O)Nc3ccc(F)cc3F)CCCCC2)CC1,-7%,28%,-21%[46.1 µM],13%,-21%,x,x,5%
S=c1[nH]nc(Nc2cccc3ccccc23)s1,-3%,20%,1%[46.1 µM],5%,15%,x,x,0%
O=C1Nc2ccccc2N=C(c2ccccc2)c2ccccc21,10%,21%,u,-5%,u,x,x,-1%
COc1ccccc1CNC(=O)c1c(N)n(CCCN2CCOCC2)c2nc3ccccc3nc12,16%,-8%,u,10%,26%[14.3 µM],u,-18%,u
COc1ccccc1NC(=O)N(CCCN1CCOCC1)Cc1cc2cc3c(cc2[nH]c1=O)OCO3,-2%,5%,29%&29%,-10%,5%,-9%,-4.5%,-6%
Cc1ccc(NC(=O)c2c(C)nc(Nc3nc4ccccc4o3)nc2C)cc1,1%,-12%,-10%,6%,u,4%,7.1%,-24%
O=C(CN1CCN(S(=O)(=O)c2ccccc2)CC1)NC(=O)NC1CCCCC1,-2%,-14%,12%[46.1 µM],-12%,1%,4%,-6.5%,-5%
O=C(Cn1c(=O)oc2ccccc21)Nc1nc(-c2ccc(Br)cc2)cs1,-5%,-24%,u,-8%,u,16µM*,1.3%,17%
CCOC(=O)C1(CC)NC(c2ccc(OC)c(OC)c2)C2C(=O)N(c3cccc(C(C)=O)c3)C(=O)C21 (stereo not given),3%,-14%,x,10%,x,x,x,-9%
O=C(COCc1cc(-c2ccc3c(c2)OCO3)on1)N1CCN(c2ccc(F)cc2)CC1,-21%,-25%,6%[46.1 µM],14%,2%[46.1 µM],x,x,19%

Next section
compound,RE007 growth inh,2A StopGo,MARV entry inh,NS1 function inh,LASV entry inh,Cruzain noTriton,Cruzain inh Det,SARS PLpro yeast
CC1=CC(C)(C)N(C(=O)CCl)c2cc(C)ccc21,-1%,-28%,u,-2%,9%[46.1 µM],x,x,1%
Cc1ccnc2nc(C(=O)Nc3ccc(N4CCOCC4)cc3)nn12,9%,22%,12%,4%,1%,-9%,2.2%,0%
COc1ccc(CC(=O)OCC(=O)Nc2ccc(Cl)cc2C)cc1,u,-19%,17%,x,u,x,x,4%
Cc1cc(C)c(S(=O)(=O)Nc2ncn[nH]2)cc1C,-5%,-2%,22%[46.1 µM],5%,18%,x,x,18%
CN(CC(=O)Nc1ccccc1Br)C(=O)c1ccc(COc2ccccc2)cc1,-13%,u,26%,-1%,-1%,x,x,-1%
Nn1c(SCc2ccccc2)nnc1C1CCCCC1,3%,43%[activator],8%[46.1 µM],-2%,u,x,x,-2%
CN1CCN(c2ccc(S(=O)(=O)N3CCCCC3)cc2NC(=O)c2ccc(F)cc2F)CC1,-7%,-10%,u,-9%,-2%,-7%,-0.1%,10%
CCN(CC)CCNC(=O)c1ccc2c(c1NCCO)C(=O)c1ccccc1C2=O,-29%,-26%,x,7%,x,x,x,-1%
CCn1c(SCc2nc3ccccc3c(=O)[nH]2)nnc1-c1cccnc1,-1%,21%,-1%&4%,1%,-8%,3%,-1.3%,-2%
CCO/C=N/Nc1nc(C(F)(F)F)nc2c1cnn2Cc1ccccc1,4%,u,x,14%,x,x,x,1%

Following part.
compound,RE007 growth inh,2A StopGo,MARV entry inh,NS1 function inh,LASV entry inh,Cruzain noTriton,Cruzain inh Det,SARS PLpro yeast
C/C(CC(=O)Nc1cccc(Br)c1)=N\NC(=O)c1ccc(O)cc1O,-2%,-8%,x,1%,x,x,x,11%
COc1ccc(-n2nnnc2SC(C)C(=O)NCC(=O)Nc2ccc(F)c(F)c2F)cc1 (stereo not given),6%,-18%,u,-7%,-20%,3%,-6.5%,11%
CCNC(=O)c1cnc2c(-c3ccccc3)c(C)nn2c1C,x,-16%,x,x,-2%[46.1 µM],10%,1.0%,x
O=C(CSc1nc2c([nH]c3ccccc32)c(=O)n1-c1ccc(Cl)cc1)NCC1CCCO1 (stereo not given),x,0%,x,x,3%[46.1 µM],9%,-0.3%,x
CCCS(=O)(=O)NCCc1cc2cc(C)c(C)cc2[nH]c1=O,18%,-3%,u,-1%,1%,-14%,-4.8%,1%
O=C(NC1CCCC1)C(c1ccncc1)N(C(=O)c1csnn1)c1ccc(Cl)cc1 (stereo not given),-20%,2%,-16%[46.1 µM],-11%,0%,x,x,1%
CC(C)CN1C(=O)c2ccccc2C1(O)Cc1ccccc1 (stereo not given),-1%,-7%,3%,3%,9%,7%,-7.8%,-8%
Cc1c(Cl)cccc1NC(=S)N1CCN(C(=O)C2CCCO2)CC1 (stereo not given),-3%,-29%,3%,-3%,-5%,-6%,-0.2%,2%
COc1cccc(/C=N/NC(=O)c2oc3nc(-c4ccccc4)cc(-c4ccco4)c3c2N)c1,18%,-20%,u,14%,-28%[46.1 µM],x,x,10%
COc1ccc(CCNC(=O)c2cc(S(=O)(=O)N3CCCCCC3)ccc2OC)cc1OC,-4%,-23%,-13%[46.1 µM],x,u,x,x,1%

Retrieved one by one from the list above, 5 records:
compound,RE007 growth inh,2A StopGo,MARV entry inh,NS1 function inh,LASV entry inh,Cruzain noTriton,Cruzain inh Det,SARS PLpro yeast
O=C(NC1CCCC1)C(c1ccncc1)N(C(=O)c1csnn1)c1ccc(Cl)cc1 (stereo not given),-20%,2%,-16%[46.1 µM],-11%,0%,x,x,1%
C/C(CC(=O)Nc1cccc(Br)c1)=N\NC(=O)c1ccc(O)cc1O,-2%,-8%,x,1%,x,x,x,11%
O=C(CSc1nc2c([nH]c3ccccc32)c(=O)n1-c1ccc(Cl)cc1)NCC1CCCO1 (stereo not given),x,0%,x,x,3%[46.1 µM],9%,-0.3%,x
COc1ccc(-n2nnnc2SC(C)C(=O)NCC(=O)Nc2ccc(F)c(F)c2F)cc1 (stereo not given),6%,-18%,u,-7%,-20%,3%,-6.5%,11%
CCNC(=O)c1cnc2c(-c3ccccc3)c(C)nn2c1C,x,-16%,x,x,-2%[46.1 µM],10%,1.0%,x

Assay outcomes: PubChem, National Center for Advancing Translational Sciences (NCATS)
